Compound activity as filed in PubChem BioAssay.
E coli growth: E. coli growth inhibition, primary screen, OD600 | Escherichia coli growth, 23 h; active compounds read low | OD600 absorbance (no concentration beside the values) | 330,000 tested, 0.21% active;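 active means OD600 absorbance below the run mean of sample wells minus 3.6 SD, in any replicate, cut at about 0.56 in these data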;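 further: stock transfer was 300 nL into about 60 µL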
AF4-AF9 inh: inhibitors of AF4 peptide binding to AF9, primary screen, biochemical, AlphaScreen, biotin-AF4 peptide, FLAG-AF9, single point | Protein AF-9 (Homo sapiens), P42568 | inhibition, % at 10 µM | 350,000 tested, 0.47% active;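 active means every replicate reaching a set inhibition limit, whatever the replicate mean, cut at about 25% in these data; inconclusive means mean inhibition reaches that limit but some replicates miss it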;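 further: 0% = plate neutral control median and 100% = total signal loss; the record names both 10 and 1 µM as test concentration; the first replicate is given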
Target sequence (P42568 whole entry, looked up): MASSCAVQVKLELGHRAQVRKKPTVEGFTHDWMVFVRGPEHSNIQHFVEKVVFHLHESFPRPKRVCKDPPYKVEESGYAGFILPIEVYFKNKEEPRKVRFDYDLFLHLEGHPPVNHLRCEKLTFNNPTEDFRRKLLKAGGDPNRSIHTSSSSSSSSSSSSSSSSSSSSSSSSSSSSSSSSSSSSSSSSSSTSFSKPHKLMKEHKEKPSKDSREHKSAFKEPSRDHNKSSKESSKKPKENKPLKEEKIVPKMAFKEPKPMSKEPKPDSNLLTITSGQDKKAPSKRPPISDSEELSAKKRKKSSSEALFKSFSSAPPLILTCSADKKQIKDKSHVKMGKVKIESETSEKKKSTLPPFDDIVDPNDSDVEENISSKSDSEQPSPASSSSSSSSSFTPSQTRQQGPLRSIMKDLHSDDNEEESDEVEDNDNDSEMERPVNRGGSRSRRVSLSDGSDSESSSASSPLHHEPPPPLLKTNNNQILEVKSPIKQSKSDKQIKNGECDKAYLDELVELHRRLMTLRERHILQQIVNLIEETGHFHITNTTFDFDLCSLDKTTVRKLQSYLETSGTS
FGF22 binding: binders of human FGF22 protein, primary screen, FGF22 synaptogenesis inhibitor project, biophysical, thermal shift, single point; Fibroblast growth factor 22 (Homo sapiens), Q9HCT0; recombinant FGF22 thermal shift, SYPRO orange fluorescence; percent of sucrose octasulfate shift, DMSO zero; calls only at 9.99 µM; AID 651658, 2012; 340,000 tested, 1.5% active;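 active means melting point raised past a set limit in the mean and every replicate; inconclusive means no clear call; three in four hits are not shown here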
Target sequence (Q9HCT0 whole entry, looked up): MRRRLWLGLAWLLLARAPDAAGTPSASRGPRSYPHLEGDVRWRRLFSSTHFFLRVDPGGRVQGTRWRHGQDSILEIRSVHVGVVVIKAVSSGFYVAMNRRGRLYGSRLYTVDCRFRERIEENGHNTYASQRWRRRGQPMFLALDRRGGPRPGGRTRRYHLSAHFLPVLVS
UCH37 DUB inh: inhibitors of human UCH37 deubiquitinase, primary screen, biochemical, Ub-AMC cleavage, fluorescence. 330,000 tested, 0.33% active. AID 588478, 2011. purified proteasome/UCH37. inhibition, % (no concentration beside the values);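 active means mean of two replicates above 20%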;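 further: 0% = compound-free wells with enzyme and 100% = wells lacking proteasome; stock transfer was 100 nL into about 20 µL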
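Material: Human UCH37 enzyme supplied as purified proteasome complex | Schedule: 30 min preincubation with enzyme, 25 min cleavage at room temperature | Detection: AMC fluorescence 355/460 nm | Measure: % inhibition of Ub-AMC cleavage fluorescence | Controls: Wells without proteasome as full block, compound-free enzyme plus substrate as uninhibited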
Bfl-1 A1 inh: caspase 3/7 activation in MEF A1-2A-BIM cells, primary screen, A1 inhibitor project, cell-based, luminescence, HTS; Caspase-Glo 3/7 luminescence, 3 h; percent of clofoctol response, vehicle zero; caspase activation, % (no concentration beside the values); 330,000 tested, 0.066% active;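 active means over half of replicate activation scores above 10%, or exactly half above 10 with the replicate mean above 10; inconclusive means replicate mean below 10 yet half the replicates above 10; inactive means over half of replicates below 10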;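 further: wells of about 30 µL received 50 nL stock; many hits fall short of the cut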
Ecoli rRNA inh: reduced GFP signal of wild-type E. coli, primary screen, bacterial rRNA inhibitor project, GFP/RFP fluorescence, OD600, single point | E. coli WT GFP vs humanized-ribosome RFP mutants, 24 h; active compounds read low; DMSO median 0, no signal -100 | GFP signal change (wild-type ribosome), % (test concentration not listed) | 350,000 tested, 1.6% active | AID 720706, 2013;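 active means significant combined selectivity score with lowered wild-type GFP, culture density cut under 30%, mutant RFP and density less affected; inactive means any of these conditions unmet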; further: one replicate is shown; some compounds called inactive have numbers as strong as hits
Beta cell apopt: inhibitors of cytokine-induced beta cell apoptosis, primary screen, luminescence; INS-1E cytokine-induced death, ATP luminescence, 48 h; percent of positive-control rescue, neutral wells zero; protection from apoptosis, % (no concentration beside the values); 300,000 tested, 0.8% active; AID 435005, 2010;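 active means all replicates at 75% or more, or half of them and the mean; inconclusive means half reach 75% but not the mean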;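 further: 0% = cytokine-treated negative control wells and 100% = positive control rescue; higher means more ATP so stronger rescue from cytokine killing; wells of about 40 µL received 100 nL stock; the first replicate is given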
T cruzi inh: inhibitors of intracellular T. cruzi growth, primary screen, luminescence, NIH3T3 host cells. inhibition, % (test concentration not listed). AID 1885, 2009. T. cruzi beta-gal in NIH3T3, 90 h. 300,000 tested, 1.4% active;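 active means mean inhibition across valid replicates above about 55%, limit read from the data; inconclusive means mean below that limit but half or more replicates reach it; inactive means mean below it, under half of replicates reach it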;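 further: signal also drops with host cell toxicity which is not excluded here; 0% = plate median of DMSO wells and 100% = zero luminescence signal; higher percent means less beta-gal luminescence so fewer parasites; stock transfer was 50 nL into about 50 µL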
Ecoli rRNA inh OD600: also measured in Ecoli rRNA inh; calls as there; OD600 change, %; measured here: OD600 growth;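 optical density of the mix in the first replicate; 0 = DMSO median and -100 = no signal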
Ecoli rRNA inh RFP: also measured in Ecoli rRNA inh; calls as there; RFP signal change, %; measured here: RFP humanized mutant strains;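 first replicate; 0 = DMSO median and -100 = no signal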
Numbers without * were called inactive; i = inactive; u = inconclusive; x = no result given. Some of the compounds tested. The share of hits here may be higher or lower than overall.

mol	E coli growth	AF4-AF9 inh	FGF22 binding	UCH37 DUB inh	Bfl-1 A1 inh	Ecoli rRNA inh	Ecoli rRNA inh OD600	Ecoli rRNA inh RFP	Beta cell apopt	T cruzi inh
CCOC(=O)N1CCN(C(=O)c2ccc3nc4ccsc4c(=O)n3c2)CC1	0.732	-0.9	i	-145.2	-0.5	9.4	7.9	1.8	-4.2	-4.2
COCCCNCCOc1ccccc1-c1ccccc1	0.674	2.1	i	1.6	0.7	5.7	-0.8	-8.5	0.3	-14.2
Fc1ccccc1Nc1nc(NCc2ccco2)nc(N2CCOCC2)n1	0.696	4.6	i	-0.2	0.5	-9.4	-4.6	3.8	7.6	39.0
CC(C)N(C(=S)NC1CCCCC1)c1ccccc1	0.629	x	x	2.1	1.6	x	x	x	-1.2	-9.1
c1ccc2cc(Cn3ccnc3)ccc2c1	0.64	-7.2	i	5.4	0.4	11.4	6.0	1.7	-2.3	7.4
C/C(=N/NS(=O)(=O)c1ccc(Cl)cc1)c1cccc(NC(=O)c2ccncc2)c1	x	-0.5	i	x	1.0	-12.8	-12.7	-0.3	3.3	6.8
CCOc1ccc(C(=O)OCC(=O)Nc2ccc3c(c2)OCCO3)cc1OC	0.72	-3.1	i	-0.3	-1.0	1.4	8.5	-3.2	-2.2	x
O=C(c1ccc(Cn2c(=S)[nH]c3cc4c(cc3c2=O)OCO4)cc1)N1CCN(c2ccccc2)CC1	0.691	2.4	i	4.8	-1.1	7.7	17.8	2.5	19.3	38.5
O=c1[nH]cnc2c1C(c1ccccc1)c1c(nc[nH]c1=O)O2	0.639	1.5	i	-4.0	x	9.3	6.4	2.6	x	-8.3
CCOC(=O)C1CCN(c2ccc(-c3cccs3)nn2)CC1	0.627	0.9	i	-13.5	-7.7	-8.2	-9.2	-0.4	20.5	1.3
COc1cccc(C(=O)O/N=C(\N)c2ccc([N+](=O)[O-])cc2)c1	0.734	x	x	-0.5	-5.6	x	x	x	0.1	5.7
O=c1[nH]cnc2c1nc(SCc1ccccc1)n2C1OC(CO)C(O)C1O (centres undefined)	0.734	x	x	5.4	-0.6	x	x	x	-5.8	-14.8
O=C1NC(=O)/C(=C/c2ccc(-c3cccc([N+](=O)[O-])c3)o2)S1	0.663	1.9	i	10.8	-8.5	-5.6	-8.3	-1.8	28.2	-0.8
Cc1coc2c(C)c3oc(=O)c(CCC(=O)N4CCC(C(=O)NCCCC(=O)O)(c5ccccc5)CC4)c(C)c3cc12	0.706	2.5	i	-90.5	-1.6	-7.3	2.1	1.9	-6.4	-2.5
Cc1c(C(=O)N2CCCC2)c(S(=O)(=O)N2CCN(c3ccccc3F)CC2)c(C)n1C	0.65	-2.2	i	5.2	0.4	3.1	1.9	-2.5	-11.4	-3.2
Nc1nc(Cl)cc(Oc2ccc(Cl)cc2)n1	0.674	-1.0	x	3.7	-1.6	x	x	x	1.0	-3.3
CC1Sc2n(c3ccccc3[n+]2C)N=C1c1ccccc1 (centres undefined)	0.677	x	x	6.8	0.1	x	x	x	36.8	45.3
O=C1C(Cl)=C(N2CCC(C(=O)O)CC2)C(=O)c2ccccc21	0.651	x	x	78.5*	2.1	x	x	x	-27.6	-11.2
Cc1ccccc1N1CC(C(=O)NC2CCCC2)CC1=O (centres undefined)	x	-1.9	i	x	1.2	5.4	12.7	0.5	-8.3	-0.3
Cc1cc(C)cc(C(=O)NCC(=O)OC(C)C(=O)N(C)c2ccccc2)c1 (centres undefined)	0.646	-1.9	x	-0.1	1.1	1.1	3.2	1.8	-15.8	-8.9
Cc1c2cnn(-c3ccccc3)c(=O)c2c(C)n1CCCC(=O)NCCN1CCN(C)CC1	0.642	u	i	2.6	0.1	9.9	5.5	-3.1	-1.2	0.7
Cc1ccccc1N(C(=O)c1cccs1)c1nc2ccccc2s1	0.761	x	x	-0.5	0.0	-15.4	-10.7	-0.4	9.0	8.6
COc1cccc(NC(=S)N(CCc2nc3cc(C)c(C)cc3[nH]2)Cc2cccnc2)c1	0.692	-16.0	i	2.5	-0.3	5.5	-5.4	-0.7	x	-13.2
CCN(CC)S(=O)(=O)c1cc(NC(=O)COC(=O)Cn2cnc3ccccc32)ccc1C	0.672	x	x	4.9	0.2	x	x	x	2.0	-9.3
CCS(=O)(=O)n1nc(C(=O)N2CCOCC2)nc1N	0.687	x	x	0.0	1.0	x	x	x	-7.1	-15.0
COc1ccc(-c2ccc(C(=O)O)o2)c([N+](=O)[O-])c1	0.682	-12.5	i	3.6	-0.3	-1.2	1.3	-1.3	-3.2	-5.1
O=C(OCc1cnc(Cl)s1)c1cccc(Cl)c1	0.697	x	x	1.1	1.0	x	x	x	-0.6	-6.8
CCOC(=O)CNC(=O)CN1C(=O)CC(c2ccco2)Sc2ccccc21 (centres undefined)	0.688	0.4	i	4.7	-0.9	14.6	4.2	1.2	-5.5	-9.0
CN(c1ccc(C(=O)Nc2cccnc2)cc1)S(=O)(=O)c1ccc(Cl)cc1	0.696	-2.1	i	3.7	1.3	-25.8	-30.0	2.0	-0.8	-9.3
CCOc1ccc(-c2csc(C3COc4ccccc4O3)n2)cc1 (centres undefined)	0.739	x	x	1.4	1.5	x	x	x	0.3	-0.7
CCCCOc1cccc(C(=O)NC(=S)Nc2ccc(Cl)c(C(=O)O)c2)c1	0.642	-3.1	i	2.5	0.4	-25.9	-27.3	-1.3	0.9	-5.5
CC(=O)c1ccc(NC(=O)CN2CCC(C(=O)c3ccc(F)cc3)CC2)cc1	0.675	1.8	i	2.9	0.0	0.6	0.9	0.3	2.9	2.4
O=C/C(=C\Nc1ccc(C(=O)N2CCOCC2)cc1)c1nc2ccccc2o1	0.668	-16.9	i	12.1	0.3	-9.1	-17.1	0.3	-5.6	-11.0
Cc1nc(-c2cccc(NC(=O)c3ccc(-n4nccc4C)cc3)c2)cs1	0.664	0.7	i	4.5	-1.1	-30.5	-27.6	-1.8	3.3	x
O=C(O)c1cc(-c2ccccc2)nc(-c2ccccc2)c1	0.692	-2.6	i	-5.2	2.0	x	x	x	0.0	x
CCOC(=O)Cc1csc(NC(=S)NC(=O)c2ccc([N+](=O)[O-])cc2)n1	0.635	x	x	2.8	-0.5	x	x	x	-1.5	-4.1
N#Cc1ccccc1NC(=O)CN(Cc1ccccc1)Cc1ccccc1	0.631	-4.6	i	3.3	1.0	-3.1	-6.2	0.1	-7.9	20.2
S=C(NC1CCCC1)NN1CCOCC1	0.672	3.6	i	-0.4	-0.1	1.2	2.0	-1.4	-16.7	-1.3
Cc1ccc(C(=O)c2coc3ccc(OCC(=O)O)cc23)cc1	0.738	x	x	2.7	0.5	x	x	x	-11.9	-2.2
COc1ccc(-c2nn(-c3ccccc3)cc2C(=O)NCC(c2cccs2)N2CCOCC2)cc1 (centres undefined)	0.695	-3.5	i	3.5	-0.8	-1.9	-4.0	-1.2	0.9	22.2
CC(=O)OCC1(C)CN(c2ccccc2)N(C(C)=O)C1=O (centres undefined)	0.668	-11.7	i	4.4	-0.1	-19.8	-34.5	-5.3	-8.0	15.8
COc1ccc2[nH]c3c(c2c1)CCN1C(=O)C(CC(=O)NCCC2=CCCCC2)C[C@H](C(=O)N2CCOCC2)[C@@]31CCC1CCCC1 (some centres undefined)	0.702	-1.2	i	1.2	x	11.9	8.0	-2.2	x	x
c1ccc(CCC2Cc3ccccc3N2)cc1 (centres undefined)	0.665	x	i	0.1	-0.4	6.4	2.6	-0.9	-6.0	x
Cc1ccc(C(=O)Nc2cccc(NC(=O)c3ccc(C)cc3)n2)cc1	0.658	0.4	i	0.8	-1.0	x	x	x	x	x
Cc1nnc(NC(=O)CN2C(=O)NC3(CCCC3)C2=O)s1	0.639	-2.0	i	0.3	0.8	0.0	7.2	-1.5	x	0.7
O=C(CN1C(=O)NC2(CCCCCCC2)C1=O)NCc1cccs1	0.698	-3.7	i	4.2	0.8	-4.7	-2.2	-5.0	5.1	1.3
C=CCc1ccc(OCCOc2cccc3ccc(C)nc23)c(OC)c1	0.659	x	x	6.0	0.8	x	x	x	-5.2	29.1
CN1CCN(C(=O)c2ccc3nc(-c4ccccc4)c(-c4ccccc4)nc3c2)CC1	0.718	6.1	i	-207.5	1.5	-6.3	-9.7	14.7	1.1	5.6
Cc1ccnc(NC(=O)COc2c(C)cc(C)cc2[N+](=O)[O-])c1	0.676	x	x	1.0	-0.2	x	x	x	x	-2.0
CCSc1nc2cc(OC)c(OC)cc2c(=O)n1CCc1ccccc1	0.763	x	x	2.0	0.6	x	x	x	5.2	33.4
COc1cc(/C=N/N=C(\N)c2nonc2N)cc(OC)c1OC	x	-0.2	i	x	-2.7	12.2	1.9	-0.4	4.3	7.7
Cc1ccc(NC(=O)CN(C)C(=O)Cn2nnc(-c3ccccc3)n2)cc1	0.665	0.9	x	4.4	0.4	5.8	-2.9	1.1	0.9	-2.1
COc1ccc(C(C(=O)NC(C)(C)C)N(C(=O)CNC(=O)c2cccs2)c2ccc(NC(C)=O)cc2)cc1OC (centres undefined)	0.691	-2.0	i	5.2	0.2	10.9	17.5	-0.8	-2.8	-15.1
Cc1ccc(C(=O)N2CC(C)OC(C)C2)c(Cl)c1 (centres undefined)	0.701	x	x	1.9	0.2	x	x	x	-4.1	-15.2
COc1cccc(N(Cc2nnc3n2CCCCC3)C(=O)Nc2ccccc2F)c1	0.706	1.1	i	1.2	1.7	-10.0	-3.5	1.8	-4.3	-8.1
Cc1noc(C)c1CSc1nc2sc(C)c(C)c2c(=O)n1-c1ccccc1	0.786	x	x	6.0	0.3	x	x	x	7.5	59.5*
Cc1ccc(N(CC2CO2)S(=O)(=O)c2ccccc2[N+](=O)[O-])cc1 (centres undefined)	0.711	2.8	i	2.2	0.4	0.2	-3.4	5.7	-2.8	-4.3
CCC(C)NCCOc1ccc(Br)cc1 (centres undefined)	0.678	x	x	4.5	-0.1	x	x	x	1.6	-8.0
